# LANA-nucl inh – inhibitors of KSHV LANA-nucleosome binding, primary screen, biochemical, fluorescence polarization, FITC-LANA1-23, chicken nucleosomes. FITC-LANA1-23 / chicken nucleosome fluorescence polarization; active compounds read low. z-score (no concentration beside the values). 0.3% of 51,000 active. AID 720717, 2013;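 active = both repeat wells score below -2 in polarization z-score versus plate sample wells, excluding overly bright wells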;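 also: 100 nL library stock added to about 30 µL; numbers are from one replicate; some results filed as inactive read as strong as hits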
#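 Material: Purified chicken nucleosomes with FITC-labelled LANA N-terminal peptide (1-23) | Reagent: 50 nM FITC-LANA1-23 probe | Medium: TEN-BT buffer, pH 7.5 | Times: 10–45 min incubation at room temperature | Detection: Fluorescence polarization | Replication: Duplicates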
# Ab BasE inh – BasE siderophore enzyme inhibitors, primary screen, biochemical, Acinetobacter baumannii ATCC 17978, fluorescence polarization | purified BasE, fluorescence polarization binding displacement | inhibition, % (concentration not given with the values) | 0.1% of 84,000 active | AID 485350, 2010;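 active = both replicates above 25% with normal brightness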;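 also: 0% = negative plate control signal and 100% = positive plate control signal; stock transfer was 100 nL into about 30 µL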
# Active calls of the source: *; / = not tested or not shown.
SMILES,LANA-nucl inh,Ab BasE inh
COc1ccc(-c2[nH]ncc2CN(Cc2ccccc2)C(=O)/C=C/C(=O)O)cc1,/,0.6
CCOC(=O)c1c(C)n(-c2ccc(C)cc2)c2ccc(OCC(O)CNCC3CCCO3)cc12 (stereo not given),/,-4.0
O=C1CCC(c2ccccc2)C(=O)C1C(=O)c1ccc(Cl)cc1Cl (stereo not given),/,0.2
COc1ccc(-c2ocnc2C(=O)NCC(C)c2ccccc2)cc1 (stereo not given),0.348,-0.5
O=C(CNCc1ccccn1)NCc1ccc(Cl)cc1,/,-1.6
CNC(=O)CCC(=O)N1CC2CCCN2c2ccccc21 (stereo not given),-0.542,0.2
CC1=N/C(=C2/C=C(c3ccc4c(c3)OCO4)Oc3ccccc32)C(=O)O1,0.216,4.5
CCN(c1ccccc1)C1(O)C(=O)c2ccccc2C1=O,/,1.3
Cc1cc(Nc2ccccc2)n(C(=O)c2ccc(N)cc2)n1,-0.482,0.8
Clc1ccc2[nH]c(-c3ccccc3)cc2c1,-0.992,/
CCCCc1nnc(NC(=O)Cn2cnc3ccccc3c2=O)s1,-0.455,0.0
CCCc1ccc(C(=O)O)s1,-0.402,0.2
CSc1nc2ccccc2n1C(=O)CCN1C(=O)/C(=C/c2cccs2)SC1=S,2.28,-1.6
CC(=O)NC1C(OCCOc2ccc(Cl)cc2C)OC(CO)C(O)C1O (stereo not given),/,-0.8
CCS(=O)(=O)c1ccc2oc(NCCc3ccc(F)cc3)nc2c1,/,-0.9
C#CCn1c(Cc2ccccc2)nc2ccccc21,0.133,-1.9
N#C/C(=C\c1ccc(C(F)(F)F)cc1)c1cn(C(=O)C2CCC2)c2ccccc12,/,-3.8
COc1ccc(/C=C2\Oc3cc(OC(=O)c4ccc(F)cc4)ccc3C2=O)cc1,/,0.3
CN(/C=C1\CCCCC1=O)C1CCCCC1,/,11.6
CCCCn1c(SCC)nc2sc3c(c2c1=O)CCCC3,/,2.3
Cc1ccc2nc3n(c(=O)c2c1)CCCc1nn(-c2nc(C)cc(C)n2)c(N)c1-3,/,1.0
Cc1cc(C)c2c(CC(=O)N(C)C)coc2c1,2.15,-4.9
COC(=O)C(CC(=O)Nc1cc(C)ccc1C)Nc1ccccc1OC (stereo not given),/,0.2
Cc1cccc(NC(=O)CN2C(=S)NC(C)(C)CC2C)c1C (stereo not given),-0.16,0.1
COc1ccccc1NC(=O)[C@H](Cc1ccccc1)NC(=O)c1ccco1,/,0.5
O=C(CCC(=O)N1CCOc2ccccc21)NCC1CCCO1 (stereo not given),-0.277,3.5
Cc1sc2nc(NCCO)[nH]c(=O)c2c1C,0.531,-1.3
Fc1ccc(-c2cnc(CSc3nnc(-c4ccccc4)n3-c3ccc(F)cc3)o2)cc1,/,0.8
O=C(NC(Cc1ccccc1)C(=O)N1CCCc2ccccc21)c1ccco1 (stereo not given),/,-1.0
CC1CCC2(C)c3[nH]c4ccccc4c3CCN2C1=O (stereo not given),1.02,-0.7
CCOC(=O)c1cnc(SC(C)C(=O)N2CCCc3ccccc32)nc1N (stereo not given),0.066,-0.9
O=C(Nc1ccnn1Cc1ccccc1)c1cccnc1SC(F)F,/,1.9
COc1ccc(CCNc2nc(C)nc3c2nnn3Cc2ccccc2)cc1OC,0.233,1.6
CCOc1ccc(C(c2nnnn2C(C)C)N2CCN(c3cccc(Cl)c3)CC2)cc1 (stereo not given),0.324,-0.1
COC(=O)C(C#N)=C1CCCC1,/,1.1
COC(CN1C(=O)c2ccccc2C1=O)OC,-0.069,-1.0
N#CC(C#N)=C(N)C(C#N)Cc1ccc(C#N)cc1 (stereo not given),/,-3.8
C=CCN1C(=O)/C(=C\c2cn(CCOc3ccccc3OC)c3ccccc23)SC1=S,/,2.2
CC(C)n1nccc1/N=C1\N=C(N)c2ccccc21,/,2.4
COc1ccc(C(CNC(=O)NCC(c2ccc(OC)cc2)N2CCCCC2)N2CCCCC2)cc1 (stereo not given),/,-2.1
Cc1ccccc1-c1nnc(SCC(=O)N2c3ccccc3Sc3ccccc32)o1,0.607,1.7
CCn1cc(C2=NOC(C(=O)Nc3cccnc3)C2)c(C)n1 (stereo not given),-1.49,-0.1
O=C(C1CCCN(Cc2cccs2)C1)N1CCCCCC1 (stereo not given),-0.229,1.8
O=C(c1cn[nH]c1C1CCNCC1)N1CCN(c2ccccc2)CC1,/,-0.5
N#CCC(=O)c1c[nH]c2ccccc12,/,0.3
CS(=O)(=O)NCC(c1ccc2c(c1)OCO2)N1CCN(c2ccccc2)CC1 (stereo not given),-2,2.3
CC(C)CCn1c2ccccc2c2ccccc21,-0.589,1.2
NC(=O)c1ccccc1OCC(=O)N1N=C(c2cccs2)CC1c1cccs1 (stereo not given),/,0.5
C=CCn1cnnc1SCC(=O)NCC(F)(F)F,/,-3.7
COc1cc(-c2nnc(COc3ncnc4c(Cl)cc(Cl)cc34)o2)cc(OC)c1OC,/,-0.4
Cc1nc2sccn2c(=O)c1S(=O)(=O)NCCCN1CCN(c2ccccc2)CC1,-0.95,2.8
CCC(C)n1cnc2ccccc21 (stereo not given),/,1.8
OC(CN1CCCC1)c1ccccc1 (stereo not given),-1.03,/
CN(CCCN1C(=O)c2ccccc2C1=O)CCCN1C(=O)c2ccccc2C1=O,0.482,0.6
CN(C)/C=C1\C=C(c2ccccc2)OC1=O,-0.0365,4.9
CN(Cc1nc2ccccc2c(=O)n1CC(N)=O)C1CCCCC1,/,2.5
CC1=CCC2C(=O)N(c3cccc(C(=O)NCc4ccccc4)c3)C(=O)C2C1 (stereo not given),/,2.1
CCOC(=O)CNc1ccc(C(=O)O)cc1,/,1.7
Cn1cc(Cl)c(C(=O)OCC(=O)NCc2ccccc2)n1,0.205,-2.7
COc1cccc(/C=C2\CCCCC2=O)c1,/,1.6
# (listing goes on)
SMILES,LANA-nucl inh,Ab BasE inh
CCC(CC)n1c(COc2ccccc2Cl)nnc1SC(C)C#N (stereo not given),/,-0.1
N#Cc1ccccc1S(=O)(=O)Nc1cccc(-c2nnc3n2CCCCC3)c1,/,3.0
O=C(Nc1ccc(N2CCCCC2)cc1)c1ccc(Cl)cc1,0.303,/
COC(=O)C1=CN(C2CC2)C=C(C(=O)OC)C1c1ccc(Cl)cc1,-1.23,0.3
O=C(N/N=C/c1ccc(C(F)(F)F)cc1)c1ccccn1,-0.128,0.1
COc1ccc(NC(=O)C(=S)N2CCCCC2)cc1,-1.24,2.6
O=C(NCc1ccc(F)cc1)C1CCC(=O)N1CCc1ccccc1 (stereo not given),0.562,0.0
CC(C)(C)S(=O)(=O)c1ccccc1C(=O)O,-0.423,0.5
CCOC(=O)c1oc2ccc(Br)cc2c1COC(=O)CNC(=O)c1cccc(OC)c1,/,0.6
COc1cc(C(=O)OC2CC3CCC2(C)C3(C)C)ccc1O (stereo not given),-0.179,0.7
CC1CCc2c(sc3[nH]c(=O)n4nc(-c5cccc(S(=O)(=O)N6CCOCC6)c5)nc4c23)C1 (stereo not given),/,3.5
O=C(O)C1CCCN1C(=O)OCC1c2ccccc2-c2ccccc21 (stereo not given),/,0.7
Cc1ccc(-n2c(C)cc(=O)cc2C)cc1,-0.034,3.3
Cc1ccc2nc(-c3ccc(C)o3)c(NC3CCCCC3)n2c1,-1.29,2.7
CCN(C(=O)CSc1ncc(-c2ccc(C)cc2)n1C)C1=CCCC1,/,1.4
Cc1ccsc1CN(C)C(=O)c1cc(S(C)(=O)=O)ccc1Cl,/,2.1
COCCNC(=O)c1ccccc1-c1ccccc1C(=O)O,0.296,4.5
CCCc1cc(NC(C)c2ccccc2)n2c(nc3ccccc32)c1C#N (stereo not given),/,-0.1
O=C(/C=C/c1ccco1)OCC(=O)c1ccc(F)cc1,/,2.8
CCOC(=O)c1oc2ccc(CC/C(C)=N/NC(=O)c3ccc(OC)c(OC)c3)cc2c1C,/,-1.0
COc1ccc(-c2csc(C3=C(O)CN(C(C)C)C3=N)n2)cc1OC,/,-3.5
CCN(CC)c1nc(-c2ccc(OC)c(OC)c2)cc(C(F)(F)F)n1,-0.199,0.0
CO/N=C1\C(C)=C(C#N)C2C1C2(C)C (stereo not given),-1.08,4.5
Cc1ccc(NC(=O)c2c(Cl)nc3sccn23)c(S(=O)(=O)N2CCCCC2)c1,/,-0.1
CCCn1c(=C(C#N)C#N)s/c(=C2\C=Cc3ccccc3N2CC)c1=O,-1.01,-1.6
Cc1sc(NC(=O)CN2CCCC2)c(C#N)c1C,0.166,/
CCN(CC)S(=O)(=O)c1cccc(-c2nnc(SC(C)C)n2-c2ccccc2)c1,/,2.0
O=P(CCNCc1cccnc1)(c1ccccc1)c1ccccc1,/,3.1
Cc1occc1-c1nnc(SCc2nnc(-c3ccc(F)cc3)o2)n1C,/,-1.8
CCc1ccccc1NC(=O)CN1CCC(NC(=O)NC2CCCCC2)CC1,0.09,2.4
CCCNC(=O)Nc1ccc(C(F)(F)F)cc1,0.721,-1.6
c1snnc1C12CC3CC(CC(C3)C1)C2,0.0875,-2.2
CN(C)S(=O)(=O)c1ccc(N2CCC(CNC(=O)Nc3ccccc3)CC2)cc1,-0.54,-0.2
CSc1nc2ncc(C(=O)c3ccccc3O)cc2c(=O)[nH]1,/,1.1
S=c1[nH]nc(NCCc2ccccc2)s1,0.44,-0.9
O=C(CCn1c(=O)oc2ccccc21)Nc1ccc(Cl)cc1,0.314,1.2
CC1(C)CC2CC(C)(CN2/C=C2/CCCCC2=O)C1 (stereo not given),/,2.9
COC(=O)c1ccc(CN(C(C)=O)C(=O)Nc2ccc(C(=O)OC)cc2C)cc1,/,1.7
CN1CCc2c1nc1ccccc1c2N=C1CCCN1c1ccccc1,-0.286,2.0
CN(C(=O)CSc1nncc(=O)[nH]1)c1ccccc1,-1.2,0.2
CC(=O)N1C(=O)C(=C2C=C(C)OC(C)=C2)c2ccccc21,0.927,5.6
CC(C)n1nccc1NS(=O)(=O)c1ccccc1,/,6.2
FC(F)(F)c1nc2c(cnn2Cc2ccccc2)c2nnnn12,/,-1.1
CC(C)CNc1nc2c(N)ncnc2n1[C@H]1O[C@@H](CO)[C@H](O)[C@@H]1O,1.42,-3.3
CCn1c(=O)cc(OCC(=O)NC2CCCC(C)C2C)c2ccccc21 (stereo not given),-0.959,-3.8
CCCn1c2ccccc2c2cnn(CC(=O)NCCCN3CCCC(C)C3)c(=O)c21 (stereo not given),1.17,-4.6
CCOc1ccc(S(=O)(=O)NC(=O)N(CC)Cc2cc3ccccc3o2)cc1,-0.256,3.0
O=C(COC(=O)c1ccco1)c1ccc(OC(=O)c2ccccc2)cc1,1.37,-1.1
CCCn1c(=O)n(CC(=O)O)c2ccccc21,/,0.9
O=S(=O)(c1ccc(Cl)cc1)n1ccc(C(F)(F)F)n1,/,-0.7
COc1ccc(CNC(=O)CSc2ncnc3nc[nH]c23)cc1,0.191,0.6
O=C(COc1ccc2oc3ccccc3c2c1)NCc1ccc2c(c1)OCO2,/,0.3
Cc1cc(C)c(C(=O)NCCN2CCCCC2)c(C)c1,-0.51,-1.1
O=C(O)CS(=O)(=O)Cc1ccc(Cl)s1,/,0.2
Cc1ccc2[nH]c(C)c(CC(=O)O)c2c1,-0.035,0.1
CCCNS(=O)(=O)c1cc2c3c(c1)CCC(=O)N3CCC2,-0.399,2.6
COc1cccc(C2C3(C#N)C(N)=NC(OC)(OC)C23C#N)c1 (stereo not given),-0.322,-1.0
O=C(CSc1nnc(-c2ccoc2)c(-c2ccoc2)n1)c1ccc(N2CCCC2=O)cc1,0.485,-1.3
CC(C)CNS(=O)(=O)c1ccc(CCC(=O)NCc2ccncc2)cc1,-0.442,0.2
CCOc1cc(C(=O)n2cc(C)cn2)cc(OCC)c1OCC,1.26,-0.5

# Exported as tab-separated lines: 16 of the compounds above.
structure	LANA-nucl inh	Ab BasE inh
CC(C)n1nccc1NS(=O)(=O)c1ccccc1	/	6.2
FC(F)(F)c1nc2c(cnn2Cc2ccccc2)c2nnnn12	/	-1.1
CC(C)CNc1nc2c(N)ncnc2n1[C@H]1O[C@@H](CO)[C@H](O)[C@@H]1O	1.42	-3.3
CCn1c(=O)cc(OCC(=O)NC2CCCC(C)C2C)c2ccccc21 (stereo not given)	-0.959	-3.8
CCCn1c2ccccc2c2cnn(CC(=O)NCCCN3CCCC(C)C3)c(=O)c21 (stereo not given)	1.17	-4.6
CCOc1ccc(S(=O)(=O)NC(=O)N(CC)Cc2cc3ccccc3o2)cc1	-0.256	3.0
O=C(COC(=O)c1ccco1)c1ccc(OC(=O)c2ccccc2)cc1	1.37	-1.1
CCCn1c(=O)n(CC(=O)O)c2ccccc21	/	0.9
O=S(=O)(c1ccc(Cl)cc1)n1ccc(C(F)(F)F)n1	/	-0.7
COc1ccc(CNC(=O)CSc2ncnc3nc[nH]c23)cc1	0.191	0.6
O=C(COc1ccc2oc3ccccc3c2c1)NCc1ccc2c(c1)OCO2	/	0.3
Cc1cc(C)c(C(=O)NCCN2CCCCC2)c(C)c1	-0.51	-1.1
O=C(O)CS(=O)(=O)Cc1ccc(Cl)s1	/	0.2
Cc1ccc2[nH]c(C)c(CC(=O)O)c2c1	-0.035	0.1
CCCNS(=O)(=O)c1cc2c3c(c1)CCC(=O)N3CCC2	-0.399	2.6
COc1cccc(C2C3(C#N)C(N)=NC(OC)(OC)C23C#N)c1 (stereo not given)	-0.322	-1.0

# More records:
SMILES,LANA-nucl inh,Ab BasE inh
CCOC(=O)N1CCC(NC(=O)Cn2c(=O)oc3ccccc32)CC1,0.507,-1.1
c1ccc(CN2C3=NCCCN3c3ccccc32)cc1,/,0.8
CCCCCN=Cc1sc2ccc(OCC)cc2c1O,2.45,-0.7
O=C(OCC1CCNCC1)c1ccc2c(c1)OCO2,1.27,-0.6
O=C(Nc1ncn[nH]1)c1ccccc1CCc1ccccc1,2.1,-0.6

# Some of the compounds tested; the hit share may differ from the screen's.
